# Source: PubChem (Broad Institute)
# DUX4 inh = blocks DUX4-driven transcriptional activation | 293T-iDUX4 ZSCAN4-Gaussia luciferase reporter, 24 h; active compounds read low | activity change, negative = inhibition, % (test concentration not listed) | 37,000 tested, 0.8% active | AID 1224904;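 active means -10% or lower and over 25 points stronger than a control reporter; inconclusive means -10% or lower with a smaller gap; inactive means above -10%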;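 further: 0% = median of neutral control wells and -100% = median of positive control wells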
# DUX4 inh difference = also measured in DUX4 inh; calls as there; Gaussia minus Italica difference, %; measured here: selective DUX4 reporter inhibition;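 worked out from the two reporters; negative = selective loss of the DUX4 reporter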
# DUX4 inh control = also measured in DUX4 inh; calls as there; activity change, negative = inhibition, %; measured here: Italica tet-on control reporter;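 0 = neutral control and -100 = positive control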
# An asterisk follows results filed as active; ? = inconclusive; nt = not tested or not shown. Only part of the results is shown; rates above refer to the full screens.
SMILES,DUX4 inh,DUX4 inh difference,DUX4 inh control
Cc1ccccc1S(=O)(=O)N1C[C@H](O)COC[C@H]2O[C@@H](CC(=O)O)CC[C@@H]21,5,1,3.8
C/C=C/c1ccc([C@@H]2[C@@H](CO)N(C(=O)C3CCCC3)C23CN(C(=O)NC(C)C)C3)cc1,-6,-12,6.2
Cc1ccccc1CN(C)C[C@@H]1OCc2cnnn2CCCC(=O)N([C@@H](C)CO)C[C@@H]1C,-6,-4,-1.8
CC(C)CC#Cc1cnc2c(c1)C(=O)N([C@@H](C)CO)C[C@H](C)[C@H](CN(C)C(=O)c1cccnc1)O2,-1,-6,5.3
C[C@@H]1CN([C@H](C)CO)C(=O)c2c(c3ccccc3n2C)-c2ccccc2CO[C@H]1CN(C)Cc1ccc(C(F)(F)F)cc1,3,-1,4.5
C[C@@H]1CN([C@@H](C)CO)C(=O)c2cc(NC(=O)C3CCCCC3)ccc2O[C@@H](C)CCCCO[C@@H]1CN(C)C(=O)Nc1ccc2c(c1)OCO2,-1,3,-3.2
C/C=C/c1ccc([C@@H]2[C@H](CO)N(C(C)=O)C23CN(C(=O)c2ccc(F)cc2)C3)cc1,6,-2,8.0
C[C@@H]1CN([C@H](C)CO)C(=O)CCCn2nncc2CO[C@@H]1CN(C)S(=O)(=O)c1cccc(C#N)c1,-3,-4,1.1
CC(=O)N1CC2(C1)[C@H](c1ccccc1)[C@H](CO)N2C(=O)c1cnccn1,13,7,6.2
CN(C)C(=O)[C@@H]1[C@@H](CO)[C@@H]2Cn3c(ccc(C4=CCCC4)c3=O)[C@H]1N2C,3,2,0.9
O=C(C[C@H]1C[C@H]2c3cc(NC(=O)C4CCOCC4)ccc3O[C@H]2[C@H](CO)O1)NCc1cc(F)ccc1F,7,7,0.1
O=C(C[C@H]1C=C[C@H](NC(=O)CN2CCOCC2)[C@@H](CO)O1)NCc1cccc(F)c1,5,3,1.4
CCC(=O)N1CC(=O)N2[C@H](C1)[C@@H](c1ccc(-c3ccc(C#N)cc3)cc1)[C@@H]2CO,5,4,1.4
CC(C)[C@@H]1COCc2cnnn2CCC[C@@H](C)C(=O)N1,1,-1,2.0
O=C(C1CCOCC1)N1CC[C@@H]2[C@H](CO)Nc3ccc(Br)cc3[C@@H]21,12,4,8.4
COc1ccc2c3c([nH]c2c1)[C@H](CO)N(C(=O)c1ccccn1)CC31CCN(S(C)(=O)=O)CC1,3,-8,11
C[C@@H]1CN([C@H](C)CO)C(=O)c2cc(NS(=O)(=O)c3cn(C)cn3)ccc2O[C@@H]1CN(C)S(=O)(=O)c1ccc(F)cc1,2,-2,3.4
O=C(NCC1CC1)[C@H]1N[C@H]2c3ccc(C4=CCCCC4)c(=O)n3C[C@H]2[C@@H]1CO,-3,-6,3.5
CO[C@H]1CC[C@@H]2CCOc3c(C#N)cccc3C(=O)N(C)C[C@H](C)C(=O)N(C)C[C@H]1O2,3,-1,3.7
COc1ccccc1CN(C)C[C@H]1OCc2cnnn2CCCC(=O)N([C@H](C)CO)C[C@@H]1C,1,3,-1.8
O=C(C[C@@H]1CC[C@H]2[C@@H](COC[C@@H](O)CN2S(=O)(=O)c2ccc(Cl)cc2)O1)NCc1ccc(Cl)c(Cl)c1,?,nt,nt
COc1ccc2c3c(n(C)c2c1)[C@@H](CO)N(C(=O)c1ccc(F)cc1)CC31CN(CC2CCOCC2)C1,14,4,9.6
C[C@H]1CN([C@@H](C)CO)C(=O)c2cccc(NC(=O)C3CCCCC3)c2O[C@@H]1CN(C)S(C)(=O)=O,1,-2,3.3
O=C(C[C@H]1CC[C@H]2[C@@H](COC[C@H](O)CN2CC2CCOCC2)O1)N1CCOCC1,6,3,2.4
COCC#Cc1cnc2c(c1)C(=O)N([C@H](C)CO)C[C@@H](C)[C@H](CN(C)C(=O)c1cnccn1)O2,-3,-3,-0.6
# (further entries)
SMILES,DUX4 inh,DUX4 inh difference,DUX4 inh control
CN(C)Cc1cn(CC[C@H]2CC[C@H](NC(=O)Cc3cccnc3)[C@H](CO)O2)nn1,-2,-1,-1.7
CS(=O)(=O)Nc1ccc2c(c1)[C@@H]1C[C@H](CC(=O)NCc3ccncc3)O[C@@H](CO)[C@@H]1O2,5,7,-1.9
Cc1noc(C)c1S(=O)(=O)N(C)C[C@H]1OCCCC[C@@H](C)Oc2ccc(NC(=O)Nc3cccc4ccccc34)cc2C(=O)N([C@@H](C)CO)C[C@H]1C,2,3,-0.9
Cc1noc(C)c1S(=O)(=O)Nc1ccc2c(c1)C(=O)N([C@@H](C)CO)C[C@@H](C)[C@H](CN(C)C(=O)c1ccncc1)OCCCC[C@H](C)O2,-2,-7,4.5
CO[C@@H]1CN(C)C(=O)c2cc(NC(=O)Nc3cccc(Cl)c3)ccc2OC[C@H](C)N(C(=O)Nc2c(C)noc2C)C[C@@H]1C,1,-1,2.5
CNC[C@@H]1Oc2ncc(-c3ccccc3C)cc2C(=O)N([C@@H](C)CO)C[C@@H]1C,3,-3,5.6
CN1C(=O)c2cc(NC(=O)c3cc(F)cc(F)c3)ccc2OC[C@@H]2O[C@@H](CC(=O)O)CC[C@H]21,-2,0,-1.9
COc1ccc(S(=O)(=O)N(C)C[C@H]2Oc3ccc(NC(=O)Nc4ccc(C(F)(F)F)cc4)cc3C(=O)N([C@@H](C)CO)C[C@@H]2C)cc1,-2,0,-1.6
O=C(NC1CCC1)[C@H]1[C@H](CO)[C@H]2Cn3c(cccc3=O)[C@@H]1N2CC1CCCC1,7,4,2.3
C/C=C/c1ccccc1[C@@H]1[C@H](C#N)N(C(=O)CN2CCOCC2)[C@H]1CO,18,-1,20
O=C(C[C@H]1C[C@H]2c3cc(NC(=O)c4cccnc4)ccc3O[C@H]2[C@H](CO)O1)NC1CCCCC1,-1,-4,3.8
O=C([C@H]1[C@H](CO)[C@H]2Cn3c(ccc(C4=CCCC4)c3=O)[C@@H]1N2C(=O)c1ccncc1)N1CCCCC1,4,-3,6.9
N#Cc1ccc(-c2ccc3c(c2)[C@H]2[C@H](CCN2C(=O)Cc2ccccc2)[C@@H](CO)N3)cc1,?,nt,nt
CC=Cc1ccc2n(c1=O)C[C@@H]1[C@@H](CO)[C@H](C(=O)NCCc3cn(C)cn3)[C@H]2N1C(=O)C1CCCC1 (mixture of isomers),10,7,3.2
OC[C@@H]1[C@@H](c2ccc(C#Cc3ccccc3F)cc2)[C@@H]2CN(Cc3cncnc3)CCCCN12,-4,-6,2.1
C[C@@H]1CN([C@@H](C)CO)C(=O)c2c(c3ccccc3n2C)-c2ccccc2CO[C@H]1CN(C)C(=O)[C@H]1CCCN1C,-9,-6,-3.5
N#C[C@@H]1[C@H](c2ccc(-c3cccc(F)c3)cc2)[C@H](CO)N1C(=O)NC1CCCC1,2,4,-2.2
CC(C)C#Cc1ccc([C@H]2[C@@H](CO)N(C(=O)C3CC3)[C@H]2CNC(=O)C2CC2)cc1,-1,-2,0.6
CCC(=O)N1CCCCN2[C@H](C1)[C@H](c1ccc(-c3ccc(F)cc3)cc1)[C@@H]2CO,-7,-11,4.6
N#C[C@H]1[C@H](c2ccc(C#CC3CCCCC3)cc2)[C@@H](CO)N1S(=O)(=O)c1ccccc1,-3,-7,3.8
O=C(C[C@@H]1CC[C@@H]2[C@H](COC[C@@H](O)CN2C(=O)Nc2ccc(Cl)c(Cl)c2)O1)NC1CCC1,?,nt,nt
O=C(C[C@@H]1CC[C@H]2[C@@H](COC[C@H](O)CN2S(=O)(=O)c2ccc(F)cc2)O1)N[C@H]1CCN(Cc2ccccc2)C1,-4,-6,2.2
CC(=O)N1[C@@H]2Cn3c(ccc(-c4ccc(F)cc4)c3=O)[C@H]1[C@@H](C(=O)N(C)C)[C@@H]2CO,-3,4,-7.2
C[C@H]1CCCCO[C@H](CN(C)S(=O)(=O)c2ccc(Cl)cc2)[C@@H](C)CN([C@@H](C)CO)C(=O)c2cc(NC(=O)CCCN(C)C)ccc2O1,0,-5,5.3
CC(C)NC(=O)Nc1ccc2c(c1)C(=O)N([C@@H](C)CO)C[C@@H](C)[C@H](CN(C)S(=O)(=O)c1ccc(F)cc1)OCCCC[C@@H](C)O2,-2,-6,3.9

# Ten entries from above, with the structure last.
DUX4 inh | DUX4 inh difference | DUX4 inh control | mol
-2 | -1 | -1.7 | CN(C)Cc1cn(CC[C@H]2CC[C@H](NC(=O)Cc3cccnc3)[C@H](CO)O2)nn1
5 | 7 | -1.9 | CS(=O)(=O)Nc1ccc2c(c1)[C@@H]1C[C@H](CC(=O)NCc3ccncc3)O[C@@H](CO)[C@@H]1O2
2 | 3 | -0.9 | Cc1noc(C)c1S(=O)(=O)N(C)C[C@H]1OCCCC[C@@H](C)Oc2ccc(NC(=O)Nc3cccc4ccccc34)cc2C(=O)N([C@@H](C)CO)C[C@H]1C
-2 | -7 | 4.5 | Cc1noc(C)c1S(=O)(=O)Nc1ccc2c(c1)C(=O)N([C@@H](C)CO)C[C@@H](C)[C@H](CN(C)C(=O)c1ccncc1)OCCCC[C@H](C)O2
1 | -1 | 2.5 | CO[C@@H]1CN(C)C(=O)c2cc(NC(=O)Nc3cccc(Cl)c3)ccc2OC[C@H](C)N(C(=O)Nc2c(C)noc2C)C[C@@H]1C
3 | -3 | 5.6 | CNC[C@@H]1Oc2ncc(-c3ccccc3C)cc2C(=O)N([C@@H](C)CO)C[C@@H]1C
-2 | 0 | -1.9 | CN1C(=O)c2cc(NC(=O)c3cc(F)cc(F)c3)ccc2OC[C@@H]2O[C@@H](CC(=O)O)CC[C@H]21
-2 | 0 | -1.6 | COc1ccc(S(=O)(=O)N(C)C[C@H]2Oc3ccc(NC(=O)Nc4ccc(C(F)(F)F)cc4)cc3C(=O)N([C@@H](C)CO)C[C@@H]2C)cc1
7 | 4 | 2.3 | O=C(NC1CCC1)[C@H]1[C@H](CO)[C@H]2Cn3c(cccc3=O)[C@@H]1N2CC1CCCC1
18 | -1 | 20 | C/C=C/c1ccccc1[C@@H]1[C@H](C#N)N(C(=O)CN2CCOCC2)[C@H]1CO

# The list continues.
SMILES,DUX4 inh,DUX4 inh difference,DUX4 inh control
COc1ccc(S(=O)(=O)N(C)C[C@@H]2Oc3ccc(NC(=O)CCCCCC(=O)Nc4ccccc4N)cc3C(=O)N([C@@H](C)CO)C[C@@H]2C)cc1,0,-1,1.1
O=C(c1cccnc1)N1CC2(C1)[C@@H](c1ccccc1)[C@H](CO)N2Cc1cccnc1,9,5,3.9
COc1ccc2c3c([nH]c2c1)[C@H](CO)N(C(=O)c1cccc(F)c1)CC31CN(C(=O)c2ccccc2)C1,-8,-5,-3.1
CCCNC(=O)C[C@H]1C[C@H]2c3cc(NC(=O)Nc4ccc(F)cc4)ccc3O[C@H]2[C@H](CO)O1,-4,-1,-3.1
CC(C)C#Cc1ccc([C@@H]2[C@@H](CO)N3C(=O)CN(C(=O)Cc4cccnc4)C[C@@H]23)cc1,1,2,-1.5
O=C1N[C@@H](Cc2ccccc2)COCc2cnnn2CC[C@@H]1Cc1ccc(-c2ccccc2)cc1,-1,0,-0.7
COc1ccc2c3c(n(C)c2c1)[C@@H](CO)N(Cc1ccccc1F)CC31CCN(C(C)=O)CC1,6,10,-4.8
COc1cccc(-c2cn(CC[C@@H]3CC[C@H](NC(=O)CN(C)C)[C@H](CO)O3)nn2)c1,0,-3,2.8
CNC[C@H]1OCCCC[C@@H](C)Oc2ccc(NS(=O)(=O)c3cn(C)cn3)cc2C(=O)N([C@@H](C)CO)C[C@H]1C,3,-5,8.2
COc1ccccc1S(=O)(=O)N(C)C[C@H]1OCc2cnnn2CCCC(=O)N([C@H](C)CO)C[C@@H]1C,0,-9,9.2
C[C@@H]1CN([C@@H](C)CO)C(=O)c2cccc(NC(=O)Nc3ccc(C(F)(F)F)cc3)c2O[C@@H]1CN(C)S(=O)(=O)c1cn(C)cn1,0,-1,0.8
O=C(Nc1ccc2c(c1)[C@@H]1C[C@@H](CC(=O)N3CCc4ccccc4C3)O[C@@H](CO)[C@@H]1O2)Nc1ccccc1F,0,-8,7.9
COc1ccc2c3c([nH]c2c1)[C@H](CO)N(C)CC31CCN(S(=O)(=O)c2cn(C)cn2)CC1,19,13,5.6
O=C(Cc1ccncc1)Nc1ccc2c(c1)[C@@H]1C[C@H](CC(=O)NC3CCCCC3)O[C@@H](CO)[C@@H]1O2,-10,-15,5.5
CN1CCN(C(=O)C[C@@H]2CC[C@H]3[C@@H](COC[C@@H](O)CN3S(=O)(=O)c3cccc(F)c3)O2)CC1,-1,-3,2.5
CCCC#Cc1ccc([C@@H]2[C@@H](CO)N3C(=O)CN(C(=O)Cc4cccnc4)C[C@@H]23)cc1,1,-6,6.8
O=C(C[C@@H]1CC[C@H]2[C@@H](COC[C@H](O)CN2Cc2ccc(Cl)cc2)O1)Nc1nccs1,?,nt,nt
C[C@@H]1CN([C@@H](C)CO)C(=O)c2cccc(NS(=O)(=O)c3cn(C)cn3)c2O[C@@H]1CN(C)C(=O)Nc1ccc(F)cc1,1,0,1.7
COCC(=O)Nc1ccc2c(c1)C(=O)N(C)[C@H]1CC[C@@H](CC(=O)NCCCN(C)C)O[C@@H]1CO2,-1,-4,3.3
COc1ccc(NC(=O)Nc2ccc3c(c2)[C@@H]2C[C@@H](CC(=O)NCc4ccccn4)O[C@H](CO)[C@@H]2O3)cc1,6,8,-1.2
COCC(=O)Nc1ccc2c(c1)C(=O)N(C)[C@H]1CC[C@@H](CC(=O)NCc3ccccc3Cl)O[C@@H]1CO2,-4,-2,-2.1
COc1ccc(NC(=O)Nc2ccc3c(c2)C(=O)N([C@H](C)CO)C[C@H](C)[C@H](CN(C)Cc2ccncc2)OCCCC[C@H](C)O3)cc1,0,-1,1.5
Cc1cc(C(=O)Nc2ccc3c(c2)C(=O)N(C)[C@@H]2CC[C@@H](CC(=O)O)O[C@@H]2CO3)no1,-1,1,-2.0
